From PubChem BioAssay
PABP polyA inh: PABP-poly(A) binding inhibition | PABP-poly(A) RNA binding, fluorescence polarization | inhibition, % at 35 µM | 290,000 tested, 1% active | AID 2014;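 active = 50% or more with normal probe brightness, or confirmed in later tests; about a fifth of its hits are not listed in these tables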;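 note: calls also rest on retests at 20 µM and on dose response follow-up; controls were probe without protein and protein plus probe with vehicle; some compounds called inactive have numbers as strong as hits; many hits fall short of the cut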
Target sequence (P11940 whole entry, looked up): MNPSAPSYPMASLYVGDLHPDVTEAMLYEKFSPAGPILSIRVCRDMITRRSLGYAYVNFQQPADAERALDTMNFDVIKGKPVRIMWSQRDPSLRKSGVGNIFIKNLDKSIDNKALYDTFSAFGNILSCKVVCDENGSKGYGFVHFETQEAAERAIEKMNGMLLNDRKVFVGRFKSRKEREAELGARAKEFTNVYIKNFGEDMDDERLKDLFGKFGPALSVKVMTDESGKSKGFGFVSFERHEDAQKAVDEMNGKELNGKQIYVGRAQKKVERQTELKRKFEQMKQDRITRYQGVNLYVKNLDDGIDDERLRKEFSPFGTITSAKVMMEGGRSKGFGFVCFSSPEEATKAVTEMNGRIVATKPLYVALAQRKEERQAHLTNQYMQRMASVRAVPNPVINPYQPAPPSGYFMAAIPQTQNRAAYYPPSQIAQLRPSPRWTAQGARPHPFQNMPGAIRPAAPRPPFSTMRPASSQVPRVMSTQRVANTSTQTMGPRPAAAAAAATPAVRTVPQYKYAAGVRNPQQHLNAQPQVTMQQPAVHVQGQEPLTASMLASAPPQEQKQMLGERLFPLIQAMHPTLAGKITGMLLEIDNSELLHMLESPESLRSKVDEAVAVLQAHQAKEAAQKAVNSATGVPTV
UUG fidelity: yeast start codon fidelity modulation; activity score, % at 18.7 µM; 350,000 tested, 0.13% active; AID 602363; S. cerevisiae UUG-firefly luciferase reporter, luminescence/redox ratio;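 active = replicate mean at a twofold rise or more, about +100% in these data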;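 note: firefly luciferase made from a UUG start codon reports start codon fidelity; reporter light over untreated wells divided by growth signal over untreated wells; some hits fall short of that in this replicate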
Rce1 inh: yeast Ras-converting enzyme inhibition; Q03530; yeast membranes, quenched prenylated peptide cleavage fluorescence; calls only; 290,000 tested, 0.27% active; AID 2563;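 active = fall in fluorescence gain of 50% or more versus controls, with final raw signal at or below 3038400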;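 note: plate controls were neutral control wells for no effect and wells lacking membranes for full effect; tested at 10 µM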
Target sequence (Q03530 whole entry, looked up): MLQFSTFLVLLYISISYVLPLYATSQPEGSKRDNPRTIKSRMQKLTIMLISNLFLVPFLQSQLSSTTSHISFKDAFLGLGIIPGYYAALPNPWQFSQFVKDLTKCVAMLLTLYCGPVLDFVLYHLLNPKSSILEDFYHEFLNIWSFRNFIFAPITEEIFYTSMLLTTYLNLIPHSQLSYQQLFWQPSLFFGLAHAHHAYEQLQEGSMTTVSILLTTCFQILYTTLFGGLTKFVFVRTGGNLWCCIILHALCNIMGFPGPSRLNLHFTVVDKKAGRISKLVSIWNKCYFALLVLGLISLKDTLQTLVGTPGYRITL
HIV Env fusion: HIV envelope-mediated fusion inhibition; HeLa-JRFL Env/CEM21 cell fusion, luciferase; inhibition, % at 12.3 µM; 360,000 tested, 1.1% active; AID 651610;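 active = mean replicate inhibition score of at least 50 and every replicate individually at or above 50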;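 note: 0% = plate neutral controls and 100% = maraviroc near 300 nM; one replicate is shown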
MT1-MMP act inh: blocks activation of human MT1-MMP; GFP/RFP ratio change, % at 20 µM; 360,000 tested, 0.061% active; HT1080 RFP-PRO-GFP cells, GFP/RFP ratio fluorescence, overnight; percent of plate control window, DMSO zero; P50281;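 active = GFP/RFP ratio change of at least 30% with cell ATP level not reduced by more than half and red fluorescence within 50% of control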; note: strong numbers were not always called active
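Assay system: HT1080 RFP-PRO-GFP cells | Dosing: 20 µM single dose, 1% DMSO | Incubation: Cells overnight before dosing, compound overnight, 37 °C, 5% CO2 | Evaluation: GFP/RFP fluorescence ratio | Control set: DMSO-only wells and HT1080 RFP-L50D-GFP cell wells as references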
CSC inhib: blocks cancer stem cells; cancer stem cell-like cells viability, luminescence; inhibition, % at 7.5 µM; 300,000 tested, 1.1% active; AID 2717;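 active = mean at 75% or more and at least half the replicates too; tested in HMLE shEcad cells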;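 note: 0% = median of negative and 100% = median of positive control wells; the first replicate is given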
eIF4H inh: inhibitors of RNA binding by human eIF4H; AID 2012; 290,000 tested, 0.94% active; eIF4H fluorescence polarization binding assay; Q15056; inhibition, % at 35 µM;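 active = 50% or more with normal probe brightness, or confirmed in later tests; about a fifth of its hits are not listed in these tables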;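 note: calls also rest on retests at 20 µM and on dose response follow-up; 0% = protein and probe with vehicle and 100% = probe without protein; strong numbers were not always called active; many hits fall short of the cut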
eIF4H inh retest: recorded beside eIF4H inh, whose call it bears; inhibition, %; compound at 20 µM; confirmation average;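 mean of two retest wells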
PABP polyA inh retest: recorded beside PABP polyA inh, whose call it bears; inhibition, %; compound at 20 µM; confirmation repeats;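 mean of two retest wells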
MT1-MMP act inh RFP: also measured in MT1-MMP act inh; calls as there; RFP signal change, %; measured here: RFP expression control read;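 0 = vehicle wells; hits needed this value within 50% of zero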
* = called active by the depositor. The list is partial, so the mix of outcomes need not match the whole.

COc1ccc(CC(=O)Nc2ccc(S(=O)(=O)N3CCOCC3)cc2)cc1 was read as UUG fidelity -5, MT1-MMP act inh 5, CSC inhib -8 and MT1-MMP act inh RFP -7.
CCN(C(=O)c1cn(C)c(=O)c2cc(OC)c(OC)cc12)c1cc(OC)ccc1OC was read as PABP polyA inh 2, UUG fidelity -5, Rce1 inh inactive, MT1-MMP act inh 2, CSC inhib 6, eIF4H inh 13 and MT1-MMP act inh RFP 0.
COc1ccc(CCNC(=O)CC2Oc3ccc(Cl)cc3NC2=O)cc1OC (configuration not stated) was read as PABP polyA inh -4, UUG fidelity 3, Rce1 inh inactive, HIV Env fusion -9, MT1-MMP act inh -1, CSC inhib 13, eIF4H inh 7 and MT1-MMP act inh RFP 0.
Screening CC1CN(C(=O)COC(=O)c2ccccc2O)CC(C)O1 (configuration not stated) returned PABP polyA inh -5, UUG fidelity -6, Rce1 inh inactive, HIV Env fusion -5, MT1-MMP act inh -1, CSC inhib -7, eIF4H inh 2 and MT1-MMP act inh RFP 2.
`CCc1nccn1Cc1cc(C=O)ccc1OC` gave PABP polyA inh -1, UUG fidelity -2, Rce1 inh inactive, HIV Env fusion -2, MT1-MMP act inh -1, CSC inhib -26, eIF4H inh 13 and MT1-MMP act inh RFP 1.
`CCN(C(=O)COC(=O)c1cn(-c2ccccc2)nc1-c1ccccc1)C1CCS(=O)(=O)C1` (configuration not stated) gave PABP polyA inh 20, Rce1 inh active, HIV Env fusion -5, MT1-MMP act inh 0, CSC inhib -8, eIF4H inh -4 and MT1-MMP act inh RFP -2.
`O=C(NCc1ccccc1)C1CCCN(S(=O)(=O)c2ccc(F)cc2)C1` (configuration not stated) gave PABP polyA inh 16, UUG fidelity -9, Rce1 inh inactive, HIV Env fusion 0, MT1-MMP act inh 3, CSC inhib -17, eIF4H inh -1 and MT1-MMP act inh RFP 1.
For Cc1ccc2c(c1)c(C1=NC(=S)NC1=O)c(O)n2C the results were PABP polyA inh 5, Rce1 inh inactive, HIV Env fusion -1, MT1-MMP act inh 6, CSC inhib -7, eIF4H inh 19 and MT1-MMP act inh RFP 2.
CC1CCCCC1NC(=O)Cn1cccc1C(=O)c1ccccc1 (configuration not stated) was read as UUG fidelity -9, Rce1 inh inactive, HIV Env fusion 0, MT1-MMP act inh -6, CSC inhib -1 and MT1-MMP act inh RFP -3.
CCc1nc2ccc(C(=O)NCCc3ccccn3)cn2c1N(CCC(C)C)CCN(C)C was read as UUG fidelity -17, HIV Env fusion -4, MT1-MMP act inh -2 and MT1-MMP act inh RFP 2.
COc1cc(CCC(=O)NCc2ccc3c(c2)OCO3)cc(OC)c1OC was read as PABP polyA inh -9, UUG fidelity 0, Rce1 inh inactive, HIV Env fusion 16, MT1-MMP act inh 1, CSC inhib -4, eIF4H inh -2 and MT1-MMP act inh RFP 2.
Screening O=[N+]([O-])c1cc2c(c(CSc3nnc4ccccn34)c1)OCOC2 returned PABP polyA inh 76, Rce1 inh inactive, MT1-MMP act inh 6, CSC inhib 0, eIF4H inh -4, eIF4H inh retest -2, PABP polyA inh retest -1 and MT1-MMP act inh RFP 3.
Screening COCCN(CCOC)c1ncnc2c1cnn2-c1ccc(Cl)cc1 returned PABP polyA inh -6, UUG fidelity -13, Rce1 inh inactive, HIV Env fusion -65, MT1-MMP act inh 0, CSC inhib 20, eIF4H inh -12 and MT1-MMP act inh RFP 1.
Screening Cc1ccc(S(=O)(=O)NC(CCC(N)=O)C(=O)NCc2ccc3c(c2)OCO3)c(C)c1 (configuration not stated) returned UUG fidelity -18, HIV Env fusion -26, MT1-MMP act inh 6 and MT1-MMP act inh RFP 3.
For COC(=O)[C@@H](NC(=O)NCc1ccco1)C(C)C the results were PABP polyA inh -4, UUG fidelity -15, Rce1 inh inactive, HIV Env fusion -100, MT1-MMP act inh -4, CSC inhib 2, eIF4H inh -8 and MT1-MMP act inh RFP 3.
`CCC1CCCCN1C(=S)NC1CCCCC1` (configuration not stated) gave PABP polyA inh -7, Rce1 inh inactive, HIV Env fusion 15, MT1-MMP act inh 0, CSC inhib -9, eIF4H inh -7 and MT1-MMP act inh RFP 3.
`COc1ccc(CCNC(=O)C(C(=O)c2ccccc2)n2ccccc2=O)cc1OC` (configuration not stated) gave PABP polyA inh 13, UUG fidelity -10, Rce1 inh inactive, HIV Env fusion -107, MT1-MMP act inh -2, CSC inhib 0, eIF4H inh 0 and MT1-MMP act inh RFP 5.
`Cc1nn(CC(=O)Nc2cc(S(=O)(=O)N3CCOCC3)ccc2Cl)c(C)c1[N+](=O)[O-]` gave UUG fidelity -17, MT1-MMP act inh 3, CSC inhib -16 and MT1-MMP act inh RFP -5.
Screening Cn1nnnc1SCCNCc1ccccc1OCc1ccc(F)cc1 returned PABP polyA inh -12, UUG fidelity -20, Rce1 inh inactive, HIV Env fusion -6, MT1-MMP act inh -2, CSC inhib -9, eIF4H inh -5 and MT1-MMP act inh RFP 4.
For O=C(/C=C/c1cccs1)Nc1scc(-c2ccccc2)c1C(=O)O the results were PABP polyA inh 3, Rce1 inh inactive, HIV Env fusion 21, MT1-MMP act inh 15, eIF4H inh 8 and MT1-MMP act inh RFP 19.
Screening Cc1noc(C)c1-c1ccc(C(=O)NCC2CC2)c2occc12 returned UUG fidelity -26, HIV Env fusion -7, MT1-MMP act inh 14 and MT1-MMP act inh RFP 8.
Screening CCOc1ccccc1NC(=O)c1ccccc1-c1ccccc1 returned PABP polyA inh -8, UUG fidelity -9, Rce1 inh inactive, HIV Env fusion -17, MT1-MMP act inh 2, CSC inhib 17, eIF4H inh -1 and MT1-MMP act inh RFP -7.
CCCCOc1ccc(C(=O)NNC(=O)C2C3CCC(C3)C2C(=O)O)cc1 (configuration not stated) was read as PABP polyA inh -11, UUG fidelity -16, Rce1 inh inactive, HIV Env fusion -17, MT1-MMP act inh 3, eIF4H inh -9 and MT1-MMP act inh RFP 2.
Cc1cccc(SC2CCN(Cc3nc(CC4CC4)no3)CC2)c1 was read as PABP polyA inh -6, Rce1 inh inactive, HIV Env fusion -1, MT1-MMP act inh 1, CSC inhib 7, eIF4H inh -1 and MT1-MMP act inh RFP 2.
For CN1CCN(S(=O)(=O)c2ccc(NC(=O)Nc3cccc(Cl)c3)cc2)CC1 the results were PABP polyA inh -2, Rce1 inh inactive, MT1-MMP act inh -7, eIF4H inh -8 and MT1-MMP act inh RFP -5.
Screening Cc1ccc(-c2ccc(C(=O)O)[nH]2)cc1 returned PABP polyA inh 9, UUG fidelity -14, Rce1 inh inactive, HIV Env fusion -174, MT1-MMP act inh 2, CSC inhib 3, eIF4H inh -2 and MT1-MMP act inh RFP 6.
O=C(NCCc1csc(-c2cccnc2)n1)c1ccc(Br)o1 was read as PABP polyA inh 4, UUG fidelity 0, Rce1 inh inactive, HIV Env fusion 11, MT1-MMP act inh -7, CSC inhib -4, eIF4H inh 2 and MT1-MMP act inh RFP -3.
O=C(OCC(=O)N1CCCC1)c1c[nH]c2ccccc12 was read as UUG fidelity -23, HIV Env fusion -12, MT1-MMP act inh 0 and MT1-MMP act inh RFP 4.
CC(=O)Nc1c2c(nn1-c1ccc(C)cc1C)CS(=O)C2 (configuration not stated) was read as PABP polyA inh -8, UUG fidelity -19, Rce1 inh inactive, HIV Env fusion 2, MT1-MMP act inh 0, CSC inhib 9, eIF4H inh -1 and MT1-MMP act inh RFP 1.
O=C(CCCSc1nc2ccccc2[nH]1)NCc1ccccc1Cl was read as PABP polyA inh -10, Rce1 inh inactive, HIV Env fusion 11, MT1-MMP act inh -3, CSC inhib -11, eIF4H inh -6 and MT1-MMP act inh RFP -2.

Arranged by heavy-atom count (rising): some entries from above
Screening CC1CN(C(=O)COC(=O)c2ccccc2O)CC(C)O1 (configuration not stated) returned PABP polyA inh -5, UUG fidelity -6, Rce1 inh inactive, HIV Env fusion -5, MT1-MMP act inh -1, CSC inhib -7, eIF4H inh 2 and MT1-MMP act inh RFP 2.
Cc1cccc(SC2CCN(Cc3nc(CC4CC4)no3)CC2)c1 was read as PABP polyA inh -6, Rce1 inh inactive, HIV Env fusion -1, MT1-MMP act inh 1, CSC inhib 7, eIF4H inh -1 and MT1-MMP act inh RFP 2.
COc1ccc(CCNC(=O)CC2Oc3ccc(Cl)cc3NC2=O)cc1OC (configuration not stated) was read as PABP polyA inh -4, UUG fidelity 3, Rce1 inh inactive, HIV Env fusion -9, MT1-MMP act inh -1, CSC inhib 13, eIF4H inh 7 and MT1-MMP act inh RFP 0.

Remaining list, next part:
Screening COc1cc(/C=C/C(=O)OCC(=O)NCCN2C(=O)CSC2=O)ccc1OC(F)F returned PABP polyA inh 2, Rce1 inh inactive, HIV Env fusion -2, MT1-MMP act inh -1, CSC inhib -3, eIF4H inh -10 and MT1-MMP act inh RFP 1.
CCOc1ccc(N(CCCCO)C(=S)NC(=O)c2ccc(C)c(Br)c2)cc1 was read as PABP polyA inh -9, Rce1 inh inactive, HIV Env fusion 8, MT1-MMP act inh 1, CSC inhib -20, eIF4H inh -6 and MT1-MMP act inh RFP 1.
`OC(COc1ccccc1)CN1CCN(CC(O)COc2ccccc2)CC1` (configuration not stated) gave PABP polyA inh 10, Rce1 inh inactive, HIV Env fusion 7, MT1-MMP act inh 2, CSC inhib 12, eIF4H inh -8 and MT1-MMP act inh RFP 2.
`O=S(=O)(NCCC1CC1(Cl)Cl)c1ccccc1` (configuration not stated) gave PABP polyA inh 8, Rce1 inh inactive, HIV Env fusion 5, MT1-MMP act inh -1, CSC inhib -20, eIF4H inh 1 and MT1-MMP act inh RFP 5.
CCCn1nnc(NC(=O)C(c2ccccc2)c2ccccc2)n1 was read as PABP polyA inh 3, UUG fidelity -4, Rce1 inh inactive, HIV Env fusion 4, MT1-MMP act inh 0, CSC inhib 1, eIF4H inh 3 and MT1-MMP act inh RFP 2.
For N=c1sccn1CC(=O)Nc1cc(Cl)ccc1[N+](=O)[O-] the results were PABP polyA inh -1, Rce1 inh inactive, HIV Env fusion -19, MT1-MMP act inh -4, eIF4H inh 10 and MT1-MMP act inh RFP -1.
`CC(C(=O)Nc1cccc(S(=O)(=O)N2CCOCC2)c1)N1CCN(C)CC1` (configuration not stated) gave PABP polyA inh -2, UUG fidelity -12, Rce1 inh inactive, HIV Env fusion 1, MT1-MMP act inh -2, CSC inhib -6, eIF4H inh -5 and MT1-MMP act inh RFP 0.
For Cc1ccc(S(=O)(=O)N2[C@@H](c3ccc(Br)cc3)C(C(=O)O)=CC[C@H]2c2ccc(C(C)C)cc2)cc1 the results were UUG fidelity -24, HIV Env fusion 29, MT1-MMP act inh 2 and MT1-MMP act inh RFP 4.
`CCSc1nccc(-c2nn(-c3ccc(C)cc3)ccc2=O)n1` gave PABP polyA inh -4, UUG fidelity -16, HIV Env fusion 40, MT1-MMP act inh -5, CSC inhib 43, eIF4H inh -9 and MT1-MMP act inh RFP -6.
Cc1ccccc1N=C1N=C(N)c2ccccc21 was read as PABP polyA inh -12, UUG fidelity -9, Rce1 inh inactive, HIV Env fusion 24, MT1-MMP act inh 4, CSC inhib -1, eIF4H inh -7 and MT1-MMP act inh RFP 5.
Cc1cc(C)cc(NC(=O)CSc2nc(CSc3ccc(Cl)cc3)cc(=O)[nH]2)c1 was read as PABP polyA inh 5, UUG fidelity -8, Rce1 inh inactive, HIV Env fusion 10, MT1-MMP act inh 0, CSC inhib 6, eIF4H inh 0 and MT1-MMP act inh RFP 2.
For O=C(c1ccncc1)c1ccc(N2CCN(C3CC(=O)N(Cc4cccs4)C3=O)CC2)cc1 (configuration not stated) the results were PABP polyA inh -7, UUG fidelity -20, Rce1 inh inactive, HIV Env fusion 25, MT1-MMP act inh -5, CSC inhib 0, eIF4H inh 4 and MT1-MMP act inh RFP -29.
`Nc1ccc(S(=O)(=O)c2ccc(N3CCOCC3)c(N)c2)cc1` gave UUG fidelity -9, HIV Env fusion 81*, MT1-MMP act inh -3 and MT1-MMP act inh RFP -1.
